# Screening results deposited in PubChem by several laboratories.
# PrP UTR inh: suppresses PrP 5' UTR mRNA reporter expression; cell-based PrP 5' UTR mRNA reporter, plate reader; 0.35% of 340,000 active; inhibition, % (no concentration beside the values);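 active = every replicate at 50% or more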;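 also: 0 = median of the neutral control wells; tested in H4 reporter cells; numbers are from one replicate; inactives centre near -14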
# Mtb hypoxia inh: inhibitors of hypoxia-regulated fluorescent reporter in Mycobacterium tuberculosis; M. tuberculosis hypoxia-regulated fluorescent reporter, fluorescence; fluorescence inhibition, % (concentration not given with the values); 0.1% of 300,000 active;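 active = 35 to 45% if threefold the growth effect, above 45% if 1.5-fold the growth effect; inactive = the rest, general growth blockers included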;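 also: wells of about 50 µL received 100 nL stock; 0% = vehicle wells and 100% = reference inhibitor wells; whole bacteria with a GFP reporter of the hypoxia response; strong numbers were not always called active; many hits fall short of the cut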
# Bead autofluor: flagged as autofluorescent in microsphere protease counterscreen. compound autofluorescence counterscreen, microsphere flow cytometry; stronger effect = higher value. fluorescence intensity (test concentration not listed). 3.1% of 360,000 active;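 active = at least 3 SD above the mean of all compounds, about 16000 in these data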;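 also: 100 nL of 1 mM stock went into each well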
# Sa RN4220 lethal: kills Staphylococcus aureus RN4220; 0.33% of 330,000 active; inhibition, % (concentration not given with the values); AID 1259311; S. aureus RN4220 growth, OD600, 16 h;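 active = z-score of -3 or lower and OD600 up to 0.18 on both plates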;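 also: plate controls were untreated cells for no effect and reference antibiotic for full effect; stock transfer was 100 nL into about 80 µL; one replicate is shown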
# Sa ugtP lethal: compounds lethal to S. aureus RN4220 ugtP deletion mutant. 0.54% of 330,000 active. OD600 growth, 16 h; some inactives read as strong as hits. growth inhibition, % (concentration not given with the values);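 active = z-score under -3 and OD600 up to 0.15 on both plates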;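 also: plate controls were untreated wells for no effect and antibiotic for full effect; wells of about 80 µL received 100 nL stock; the first replicate is given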
# BJeLR viability: kills HRASV12-expressing BJeLR cells. inhibition, % (test concentration not listed). BJeLR (HRASV12) viability, CellTiter-Glo ATP luminescence, 48 h; reference of the scale not given here. 0.17% of 300,000 active. AID 1554;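 active = replicate mean above 50%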;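 also: 50 nL library stock added to about 25 µL; numbers are from one replicate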
# Mtb hypoxia inh growth: further read-out of Mtb hypoxia inh, marked with its call; growth inhibition, %; measured here: M. tuberculosis growth (absorbance);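 0% = vehicle and 100% = reference antibiotic; read after six days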
# Starred values were filed as active, the others as inactive; nt = not tested or not shown; & = joins results of further samples.
SMILES,PrP UTR inh,Mtb hypoxia inh,Mtb hypoxia inh growth,Bead autofluor,Sa RN4220 lethal,Sa ugtP lethal,BJeLR viability
COc1ccc(NC(=O)c2nc(SC)ncc2Cl)cc1,-5.6,15.9,11.3,4988,4.4,4.3,-9.1
O=C(O)c1ccc(NS(=O)(=O)c2cccc(C(=O)Nc3ccc(Br)cc3)c2)cc1,2.5,-0.3,4.0,4139,3.1,-1.2,-13.9
Cc1ccc(CSCc2nc3ccccc3[nH]2)cc1,-22.4,-1.8,-2.0,3450,-1.1,-11.6,4.1
CN(C)C(CNC(=O)/C=C/c1cccc(Cl)c1)c1ccccc1 (stereo not given),-4.6,0.6,6.2,4358,9.8,-68.4,-1.9
Cc1noc(C)c1C(=O)N1CCCc2ccccc21,-10.9,nt,nt,2423,0.1,-1.6,13.5
Cc1ccsc1C(=O)N1CCC(N2CCC(C(=O)NCC3CCCO3)CC2)CC1 (stereo not given),-48.2,-1.9,2.4,4725,2.3,5.4,6.1
COC(=O)C1=C(c2cccc3c2S(=O)(=O)c2ccccc2-3)CC2CCC1N2C(=O)N1CCOCC1 (stereo not given),nt,10.3,5.4,nt,4.7,2.5,nt
C=CCn1c(SCC(C)=O)nc2scc(-c3ccco3)c2c1=O,-13.7,-0.9,-5.3,4268,3.5,8.3,-1.1
COc1ccc(C2CC(c3cccs3)=NN2C(=O)CSc2nnc(N)s2)cc1OC (stereo not given),-1.6,-0.2,-0.8,3253,9.3,4.0,nt
COc1ccc(-c2nc(C#N)c(NCc3cccnc3)o2)cc1OC,-30.2,-2.8,6.4,8806,4.2,-0.8,-9.0
CCOc1cccc(-c2nc3cc(C)ccc3o2)c1,-86.4,nt,nt,3517,1.5,9.5,-0.4
O=C(O)COc1ccc(NC(=O)C(c2ccccc2)c2ccccc2)cc1,-26.1,-3.6,0.5,4255,4.3,14.3,-0.5
COc1cc(C=NNc2nc(C)cc(C)n2)cc(OC)c1OC,nt,3.3,-2.5,nt,0.4,2.6,nt
COc1ccc(NC(=O)CSc2nc(C)cc(C(F)(F)F)n2)cc1,-14.6,nt,nt,3740,1.4,-1.6,11.3
Cc1ccc2c(c1)c1c3n2CCCN(Cc2ccccc2)C3CCC1 (stereo not given),1.7,5.0,0.5,16950*,-0.2,-5.5,-1.1
Cc1c(NC(=O)C(C)Sc2nnc(-c3ccccc3)o2)c(=O)n(-c2ccccc2)n1C (stereo not given),-24.9,nt,nt,2357,2.8,8.1,-11.0
Cc1cc(SCC(=O)OCC(=O)N2CCN(C(=O)c3ccco3)CC2)c(C)cc1Br,-18.2,6.8,2.7,4267,8.5,10.8,5.4
C#CCOCCOCCOCCNc1nc(N2CCN(C(=O)[C@H](CCC(=O)O)n3cc(C(N)CC(C)C)nn3)CC2)nc(N2CCN(C(=O)[C@H](Cc3ccc(O)cc3)n3cc(C(N)CC(C)C)nn3)CC2)n1 (stereo not given in full),-14.5,nt,nt,3792,nt,nt,-5.7
COc1ccc(CCNC(=O)[C@@H](NC(=O)c2ccccc2F)C(C)C)cc1OC,-29.9,13.2,0.2,4469,8.5,5.5,0.2
CC1(C)CCCC2=C1CC1C(=O)N(c3ccccc3)C(=O)C1C2 (stereo not given),-17.9,5.8,4.5,2495,10.9,-8.6,17.0
Cc1ccccc1COC[C@H](CC(C)C)N1CCN(C(=O)c2cccc(C(F)(F)F)c2)CCC1=O,-8.4,nt,nt,3831,nt,nt,5.7
C=CCN1C(=O)C2(OCCO2)c2cc(C)ccc21,-6.4,-2.3,5.1,3707,1.6,12.1,-7.6
Cc1nc(N/N=C/c2ccc(O)cc2O)cc(N2CCOCC2)n1,-7.9,nt,nt,3363,nt,nt,1.0
COC(=O)[C@@]1(C)[C@H]2C(=O)N(C)C(=O)[C@H]2[C@H]2CN=C(SCc3ccc(Cl)cc3)N21,-3.4,-11.5,-6.8,3044,-2.4,-2.8,nt
CS(=O)(=O)Nc1cccc(C2=NN(C(=O)c3ccc(F)cc3)C(c3cccs3)C2)c1 (stereo not given),-0.6,-17.9,-1.1,3404,5.2,-12.2,-0.3
O=C(NCCN1CCOCC1)C(=O)NCC1CCCO1 (stereo not given),-25.9,-4.6,-14.0,2210,-2.5,0.7,12.5
Cc1cnc(N=Nc2ccccc2)[nH]1,-26.0,23.5,13.0,3661,3.8,-0.2,nt
Nc1nc(SCC(=O)Nc2ccccc2C(F)(F)F)[nH]c(=O)c1-c1ccccc1,-9.9,-9.0,-16.3,3761,3.7,-1.4,-7.8
Cc1ccc(NC(=O)CCNS(=O)(=O)c2ccc3[nH]c(=O)oc3c2)cc1,-5.6,-1.4,-5.0,5778,-2.0,-0.3,-7.5
COc1cccc(-n2c(-c3cccc(S(=O)(=O)N(C)C)c3)n[nH]c2=S)c1,-13.1,2.2,9.4,3739,8.5,4.5,3.6
CCOC(=O)c1cc2cc(-c3c(C(=O)OCC)oc4cc(O)cc(O)c4c3=O)ccc2o1,-21.7,7.3,9.0,9494,13.3,-7.9,nt
O=C(CNc1cc(S(=O)(=O)N2CCOCC2)ccc1N1CCCC1)NCc1ccco1,-13.0,5.0,-0.3,2220,2.5,-0.9,-3.6
CC1C(=O)OCC1NC(=O)OCc1ccccc1 (stereo not given),nt,-1.0,2.2,nt,5.2,1.4,nt
O=C(CNC(=O)c1ccco1)OCc1c(F)cccc1Cl,-11.2,nt,nt,20975*,nt,nt,-4.1
Cc1cccc(N2CCN(C(=O)NCc3ccc(Cl)cc3)CC2)c1,-11.6,6.1,-9.2,9703,-8.9,3.7,-10.6
COc1cc(C(=O)NCCc2ccc(F)cc2)ccc1OCC(=O)N1CCOCC1,-17.3,4.6,-1.5,nt,3.7,4.9,2.5
COc1ccc(N2CCN(CCNC(=O)C3CCN(S(=O)(=O)c4cccs4)CC3)CC2)cc1,-5.9,-1.2,-0.5,11215,4.0,2.0,5.1
COc1c(Cl)cc(C(=O)NN)cc1Cl,-6.3,6.7,6.8,3302,6.6,14.3,-0.4
N#Cc1cccc2cccc(S(=O)(=O)N3CCOCC3)c12,4.7,7.6,-7.4,nt,2.8,1.3,nt
COc1ccc(C2=Nn3c(nnc3-c3ccco3)SC2)cc1OC,19.8,9.8,3.9,4183,9.7,4.7,1.8
O=C(NC(=S)N1CCN(c2c(Cl)cccc2[N+](=O)[O-])CC1)c1cccs1,-17.2,3.7,8.0,3235,-2.9,-6.9,6.3
COc1ccc(C(O)c2nccn2C)cc1 (stereo not given),-19.1,5.8,6.0,8945,1.7,5.0,9.2
c1ccc(CNc2ccc(CNc3ncn[nH]3)cc2)cc1,-4.2,1.7,13.9,22732*,0.6,-4.5,-7.1
CCCCc1nc2ccccc2c(C(=O)O)c1C,-24.8,5.7,0.3,9345,7.3,3.8,nt
CC(C)(C)NC(=O)c1ccc2c(c1)N(CC(=O)N1CCN(c3ccc(F)cc3)CC1)C(=O)C(C)(C)O2,-13.6,-8.6,4.6,16213*,-2.9,-8.3,-10.7

# Quoted at random: 5 compounds from above.
SMILES,PrP UTR inh,Mtb hypoxia inh,Mtb hypoxia inh growth,Bead autofluor,Sa RN4220 lethal,Sa ugtP lethal,BJeLR viability
O=C(CNc1cc(S(=O)(=O)N2CCOCC2)ccc1N1CCCC1)NCc1ccco1,-13.0,5.0,-0.3,2220,2.5,-0.9,-3.6
COc1c(Cl)cc(C(=O)NN)cc1Cl,-6.3,6.7,6.8,3302,6.6,14.3,-0.4
O=C(CNC(=O)c1ccco1)OCc1c(F)cccc1Cl,-11.2,nt,nt,20975*,nt,nt,-4.1
O=C(NC(=S)N1CCN(c2c(Cl)cccc2[N+](=O)[O-])CC1)c1cccs1,-17.2,3.7,8.0,3235,-2.9,-6.9,6.3
c1ccc(CNc2ccc(CNc3ncn[nH]3)cc2)cc1,-4.2,1.7,13.9,22732*,0.6,-4.5,-7.1

# More compounds.
SMILES,PrP UTR inh,Mtb hypoxia inh,Mtb hypoxia inh growth,Bead autofluor,Sa RN4220 lethal,Sa ugtP lethal,BJeLR viability
CC1COC(=O)C(Cc2ccc(F)cc2)CCC=CCC(CC(=O)NCCO)C(=O)N1 (stereo not given),nt,5.4&17.3&-0.3,13.3&13.3&-1.8,nt,5.1&2.8&7.2,0.3&-0.3&1.9,nt
Cn1cc(CN2CCC(n3nccc3NC(=O)CCOc3ccccc3)CC2)cn1,-3.6,9.3,0.6,4684,5.0,11.3,2.8
CCc1cccc2c3c([nH]c12)C(CC)(CC(=O)O)OCC3 (stereo not given),7.0,3.9,-0.2,4236,8.4,-11.9,-4.5
COCCCNC(=S)N1CCC(NC(=O)c2ccco2)CC1,-13.4,-9.5,-9.1,4003,1.4,1.6,0.5
Cc1ccc(S(=O)(=O)NCC(=O)OCC(=O)NCCc2ccccc2)cc1,-5.0,4.4,4.9,6116,1.7,4.6,-8.2
CCc1ccc(OCC(=O)Nc2ccc(S(=O)(=O)Nc3cc(C)on3)cc2)c(Br)c1,-0.1,3.4,1.9,5734,18.0,-11.6,-7.1
CC1CN(C(=S)NC(=O)c2cccc([N+](=O)[O-])c2)CC(C)O1 (stereo not given),-9.8,nt,nt,2281,-3.7,11.1,3.2
CNC(=O)c1c(NC(=O)c2ccco2)sc2c1CCCC2,-10.1,-3.0,2.4,5943,3.7,-3.4,-0.8
c1ccc(-c2nnc(-c3ccncc3)o2)cc1,-29.0,6.5,13.1,10330,1.3,0.5,5.8
O=C(NN=Cc1ccc(Cl)s1)C1COc2ccccc2O1 (stereo not given),nt,nt,nt,nt,-5.2,-5.0,nt
CC1(c2ccccc2)NC(=O)N(CC(=O)Nc2nnc(C3CC3)s2)C1=O (stereo not given),-12.6,1.4,6.4,5387,2.1,8.1,-1.6
CCOC(=O)c1cc(-c2cc3ccccc3o2)n[nH]1,-11.5,nt,nt,3677,11.8,7.0,-6.5
O=C(/C=C/c1ccccc1)NCc1cccnc1,-28.1,-4.2,-16.5,4478,4.5,2.9,5.8
N#C/C(=C/c1ccc(N2CCOCC2)o1)c1nc2ccccc2[nH]1,-9.2,nt,nt,11009,0.6,-14.7,nt
O=C(NN=Cc1ccc([N+](=O)[O-])o1)C(O)c1ccccc1 (stereo not given),nt,24.4*,52.5*,nt,37.4,71.2,nt
CCCCNC(=O)c1onc(CSc2ccc(F)c(F)c2)c1C(=O)O,-18.1,0.0,9.0,3517,13.1,3.5,-0.3
CCCc1cc(C(=O)NCc2cccnc2)no1,-18.2,2.2,1.4,6077,-2.4,7.3,-7.3
CCN(c1ccccc1)S(=O)(=O)c1ccc(C(=O)N2CC(C)CC(C)C2)cc1 (stereo not given),-10.5,2.3,2.4,5429,4.9,0.2,-11.3
Cc1cccc(CN2CCC(n3nccc3NC(=O)CCCc3ccccc3)CC2)n1,-4.3,4.2,9.2,5594,1.6,2.0,-8.1
COc1ccc(C(C)=NNC(=O)c2cccc(S(=O)(=O)N3CCCC3)c2)c(O)c1,nt,9.3,9.8,nt,7.8,4.5,nt
O=C(NN=C/C(Br)=C/c1ccccc1)NC1CCCCC1,nt,6.1,-1.7,nt,-3.4,3.3,nt
COc1ccc(C(=O)NN2C(=O)C3C(c4ccccc4)C=CC(c4ccccc4)C3C2=O)cc1 (stereo not given),-7.7,-9.9,6.7,2532,-4.1,-13.3,6.9
COc1ccc(NC(=O)c2nc3ccccc3s2)cc1,-39.0,0.8,3.6,1990,4.6,-2.9,10.1
Cc1cc(C)c2nc(C)cc(Nc3ccc(C(=O)N4CCOCC4)cc3)c2c1,13.9,10.5,-5.5,3575,1.0,8.6,-3.1
O=C(Nc1ccc(OCC(=O)N2CCOCC2)cc1)Nc1cccc(Cl)c1,-22.5,13.6,14.5,4560,6.4,3.2,-10.3
CC1CN(C(=S)Nc2cccc([N+](=O)[O-])c2)CC(C)O1 (stereo not given),-20.5,3.7,3.4,5939,2.0,-4.1,nt
CCC(C)NC(=O)c1cnn2c(C)c3c(nc12)CCCC3 (stereo not given),10.6,0.9,12.6,10862,1.9,-2.3,3.6
Cc1ccc2nc(NC(=O)c3cccs3)sc2c1,-18.5,-3.7,12.2,3018,-0.4,-10.0,nt
Clc1ccccc1Cc1noc(CN2CCCCC2c2ccccn2)n1 (stereo not given),-1.1,-0.3,12.0,2555,1.9,10.3,2.2
COc1cccc(N2CCN(c3ccc4nnc(CCC(=O)Nc5ccc(OC)c(OC)c5)n4n3)CC2)c1,-7.2,11.8,9.0,5464,2.3,5.6,1.1
